Marburg entry inh: inhibitors of Marburg virus binding or cell entry. 300,000 compounds, 1.8% hits. Potency, µM (top dose mostly 37.8 µM), for the others: top-dose activity change, negative = inhibition, most hits filed as inhibitors. AID 540276. Marburg virus pseudotyped entry inhibition, cell reporter; control for the full effect not named in the record; about a third of the inactives were read at about 46 µM; active = well fitted inhibition curve with a large enough effect; inconclusive = small, poorly fitted or top-dose-only effect, or effect the other way; inactive = flat fitted curve, though single readings scatter; tested in HEK293 cells; about a fifth of its hits are not listed in these tables; also: % is scaled to controls: 0 for no effect and ±100 for the full control effect; luciferase read-out
Cruzain Triton: cruzain (T. cruzi) inhibition with detergent; P25779; purified cruzain, Z-FR-AMC fluorescence, 0.01% Triton; Potency, µM, inactives show max response, negative = inhibition, most hits filed as inhibitors; 200,000 compounds, 0.43% hits; AID 1478;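 also: plate controls were neutral wells for no effect and buffer without enzyme for full effect; nearly all actives have a fitted effect of over 40% in size; top concentration of the series not given in the record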
Target sequence (P25779 123-467 limits assumed): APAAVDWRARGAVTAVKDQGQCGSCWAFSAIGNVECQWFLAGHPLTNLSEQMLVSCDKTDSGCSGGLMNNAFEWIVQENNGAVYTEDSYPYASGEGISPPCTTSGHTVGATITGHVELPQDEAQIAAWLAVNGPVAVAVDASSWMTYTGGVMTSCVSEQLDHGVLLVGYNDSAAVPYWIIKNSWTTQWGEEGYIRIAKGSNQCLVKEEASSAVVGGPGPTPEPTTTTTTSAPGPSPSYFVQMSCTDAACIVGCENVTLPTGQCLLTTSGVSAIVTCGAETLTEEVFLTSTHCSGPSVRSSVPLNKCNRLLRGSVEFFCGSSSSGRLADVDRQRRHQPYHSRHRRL
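Sodium acetate buffer (100 mM, pH 5.5) containing 5 mM DTT and 0.01% Triton X-100 hosted 1.5 nM cruzain and test compound for 15 min at room temperature. Cleavage of 2 uM Z-FR-AMC was then tracked by fluorescence.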
Cruzain noTriton: blocks cruzain activity in detergent-free assay | purified cruzain, Z-FR-AMC fluorescence, no detergent | Potency, µM, for inactives: max response, negative = inhibition, usual class: inhibitors | 200,000 compounds, 2.3% hits;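 also: plate controls were enzyme without inhibitor for no effect and buffer without enzyme for full effect; nearly all actives have a fitted effect of over 40% in size; top concentration of the series not given in the record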
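Purified cruzain at 1.5 nM, pre-incubated 15 min with compound at room temperature in 100 mM sodium acetate pH 5.5, 5 mM DTT, 0.00005% Triton X-100. Reaction started with 2 uM Z-FR-AMC; AMC fluorescence increase over 60 s gives rate.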
Lassa entry inh: inhibitors of Lassa virus binding or cell entry | Lassa virus pseudotype entry inhibition, cell reporter; control for the full effect not named in the record | Potency, µM (doses to about 37.9 µM), without a hit: top-dose activity change, negative = inhibition, hits mostly inhibitors | 300,000 compounds, 1.2% hits; active means well fitted inhibition curve with a large enough effect; inconclusive means small, poorly fitted or top-dose-only effect, or effect the other way; inactive means flat fitted curve, though single readings scatter; tested in HEK293 cells; also: % is scaled to controls: 0 for no effect and ±100 for the full control effect; nearly all actives have a fitted effect of over 50% in size; luciferase read-out
2A StopGo: lowers the luciferase signal of an FMDV 2A StopGo reporter; human cells with a luciferase reporter of 2A StopGo recoding; control for the full effect not named in the record; Potency, µM (series often up to 57.9 µM), without a hit: at the highest dose signal change, negative = less light; 410,000 compounds, 1.2% hits; active = well fitted falling curve with a large enough effect; inconclusive = small, poorly fitted or top-dose-only effect; inactive = no such curve, though single readings can be large or run the other way; tested in HEK293T cells; also: % is scaled to controls: 0 for no effect and ±100 for the full control effect; nearly all actives have a fitted effect of over 45% in size; luciferase light after 4 h
SARS PLP yeast: SARS-CoV PLP inhibition in yeast; S. cerevisiae expressing SARS-CoV PLpro, growth rescue; control for the full effect not named in the record; Potency, µM (top dose mostly 32.9 µM), for inactives: at the top dose activity, positive = growth rescue; 330,000 compounds, 0.19% hits; AID 485353; active means well fitted rising curve with a large enough effect; inconclusive means small, poorly fitted or top-dose-only effect; inactive means no such curve, though single readings can be large or run the other way; also: 0% is about no effect; nearly all actives have a fitted effect of over 55% in size; growth read by luminescence after 48 h
NS1 function inh: inhibitors of influenza NS1 protein function; S. cerevisiae slowed by influenza A NS1, growth recovery by OD600; Potency, µM (highest dose often 46.1 µM), for inactives: at the top dose activity, positive = more growth; 270,000 compounds, 0.4% hits; AID 2326; active means well fitted rising curve with a large enough effect; inconclusive means small, poorly fitted or top-dose-only effect; inactive means no such curve, though single readings can be large or run the other way; also: nearly all actives have a fitted effect of over 50% in size
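OD600 was taken as the measure of yeast growth restored by compound in an NS1-expressing S. cerevisiae strain. Cells had been washed out of glucose medium and diluted 1:100 into galactose -URA medium, pH 6.0.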
RE007 growth inh: less growth of the S. pombe RE007 Vpr strain; AID 651644; Potency, µM (titrated, usually from 92.2 µM), without a hit: at the highest dose activity change, negative = less growth; S. pombe RE007 Vpr strain, BacTiter-Glo ATP luminescence, 24 h; control for the full effect not named in the record; 360,000 compounds, 0.21% hits; active = well fitted falling curve with a large enough effect; inconclusive = small, poorly fitted or top-dose-only effect; inactive = no such curve, though single readings can be large or run the other way;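 also: % is scaled to controls: 0 for no effect and ±100 for the full control effect; nearly all actives have a fitted effect of over 50% in size; the assay follows cell death caused by Vpr and the record does not say whether a fall means rescue or toxicity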
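Fission yeast RE007 carrying one integrated HIV-1 vpr copy, seeded at OD 0.01 in PMG+AL medium with 23 nL pinned compound. Grown 24 h at 30 degrees; viability read by BacTiter-Glo luminescence after 5 min.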
* marks the source's active call; other numbers are inactive results; ? = inconclusive; . = not tested or not shown; & = joins results of further samples; [ ] = remark or other dose. Unless noted, calls follow the shape of the dose curve; as a rule, active = well fitted curve in the direction sought with a large enough effect; inconclusive = small, poorly fitted or top-dose-only effect, or another doubt; inactive = no such curve, though single readings can be large; an effect the other way counts as inactive or inconclusive. Potency is read from the fitted curve at half-maximal effect. Not a hit list; any-hit rate near 4.5%.

Values run as follows: Marburg entry inh	Cruzain Triton	Cruzain noTriton	Lassa entry inh	2A StopGo	SARS PLP yeast	NS1 function inh	RE007 growth inh
- CCC(C)(C)NC(=O)C(c1ccc(C)cc1)N(Cc1ccco1)C(=O)Cn1nnc2ccccc21 (stereo not given)
    ?	0.5%	5.7%	0.0%	-1.0%	-2.5%	-5.0%	0.2%
- CCOC(=O)c1cnc2c(c(C)nn2CC)c1NCCN1CCOCC1
    3.5%[46.1 µM]	.	.	-1.3%[46.1 µM]	-0.9%	-1.4%	-5.6%	3.7%
- COc1ccc(N2C(=O)CCC(C(=O)N3CCCCCC3)C2c2ccc(OC)c(OC)c2)cc1 (stereo not given)
    4.5%&4.5%[46.1 µM]	11.2%	0.8%	5.7%	15.1%	2.6%	2.3%	-5.9%
- C/C(=N\NC(=O)c1ccc(Br)cc1)c1cccnc1
    ?	.	.	26.6%[46.1 µM]	16.8%	?	-4.7%	-17.3%
- C/C(=N\NC(=O)CC1N=C(Cc2ccccc2)NNC1=O)c1ccccc1 (stereo not given)
    -9.2%	1.6%	-2.4%	-5.0%	-20.1%	6.4%	19.9%	-1.7%
- CN(C)CCN=Cc1c(O)n(C2CCCCCC2)c(=O)[nH]c1=O
    16.2%	0.2%	-1.7%	18.9%	-11.7%	.	1.8%	22.8%
- CCN1CCCC1CNS(=O)(=O)c1ccc(Cl)c(C(F)(F)F)c1 (stereo not given)
    ?	.	.	?	4.3%	-1.1%	.	1.1%
- CN(C)C(=O)Oc1ccc2c(c1)O/C(=C\c1cccc([N+](=O)[O-])c1)C2=O
    .	.	.	.	-18.6%	-1.9%	1.1%	5.3%
- CN(c1ccccc1C(=O)Nc1cccc([N+](=O)[O-])c1)S(C)(=O)=O
    1.6%	-1.9%	-7.9%	3.4%	-10.5%	11.9%	18.4%	7.0%
- O=C(NC1CCCC1)c1cc(Nc2cccc(C(F)(F)F)c2)nc2ccccc12
    .	-10.5%	2.4%	3.5%[46.1 µM]	3.4%	.	.	.
- CN1CCN(c2ccc(C(F)(F)F)cc2NC(=O)c2ccco2)CC1
    10µM*	.	.	1.2%[46.1 µM]	-13.3%	0.1%	4.7%	-13.2%
- CCOP(C)(=O)C1(C(=O)OCc2ccccc2)CC1 (stereo not given)
    ?	2.2%	4.7%	11.5%	0.0%	2.6%	-0.3%	16.3%
- c1csc(CNc2ccc3c(c2)OCCO3)c1
    1µM*	-3.1%	8.0%	?	?	-12.4%	6.7%	-13.9%
- CN(C)C(CNC(=O)CCCc1c[nH]c2ccccc12)c1ccco1 (stereo not given)
    -3.9%	-1.1%	12.3%	3.4%	18.0%	-8.3%	-0.9%	-21.3%
- Cc1ccc(NC(=S)Nc2ccc(F)cc2)c(C)c1
    -8.8%[46.1 µM]	.	.	-16.2%	-3.4%	2.9%	.	6.1%
- CCOC(=O)c1c(/N=C/c2ccc(OC)cc2O)sc2c1CCN(C)C2
    .	.	.	.	-6.5%	2.5%	12.0%	1.9%
- COc1ccc(NC(=O)CN2CCCCC2)cc1S(=O)(=O)N1CCCCC1
    -18.7%	.	.	?	-5.2%	-0.8%	.	4.7%
- CCOC(=O)CSc1nnc(CNC(=O)c2cccs2)n1-c1cc(OC)ccc1OC
    -1.6%	3.3%	-4.5%	8.5%	7.2%	-1.2%	3.4%	4.5%
- O=C(CCC1CCCC1)Nc1ccc(Br)cn1
    -1.2%	3.2%	-17.1%	-11.9%	22.8%	-0.7%	-7.7%	-0.5%
- CCOc1ccc(C(=O)NCC(=O)OCc2c(F)cccc2Cl)cc1
    ?	-6.4%	1.5%	4.9%	19.3%	6.5%	-19.0%	-16.1%
- Cc1ccccc1C(=O)Nc1ccnn1C1CCN(Cc2c(C)n(C)c3ccccc23)CC1
    .	.	.	.	2.1%	7.1%	-0.5%	1.8%
- CC(=O)OC(=C(OC(C)=O)c1ccccc1)c1ccccc1
    -0.6%[46.1 µM]	.	.	8.5%[46.1 µM]	-17.6%	.	.	7.2%
- CN1CCN(c2ccccc2NC(=O)c2ccc(-c3ccc(Cl)cc3Cl)o2)CC1
    ?	-19.7%	0.6%	?	?	-8.9%	-20.1%	-13.1%
- O=C(O)c1ccc(CSCc2ccco2)cc1
    24.9%	3.5%	-9.6%	4.9%	-12.7%	0.5%	-26.4%	-18.6%
- CC(C1CC1)N(C(=O)c1ccccc1O)c1ccccc1 (stereo not given)
    9.4%	-2.2%	-1.2%	-21.0%	-1.4%	-6.6%	-14.8%	2.0%
- Cc1ccc(CN2CCN(CC(=O)NCc3ccc(Cl)cc3)C2=O)cc1
    -8.6%	1.7%	-1.1%	?	-28.8%	6.1%	-6.3%	51.6%
- Cc1ccsc1C=Nc1c(C)n(C)n(-c2ccccc2)c1=O
    -0.5%	4.4%	2.7%	10.6%	3.5%	4.1%	-0.4%	-0.4%
- COc1cc(C2/C(=C(\O)c3ccc4c(c3)CC(C)O4)C(=O)C(=O)N2CC2CCCO2)cc(OC)c1OC (stereo not given)
    19.8%	.	.	21.5%	-18.1%	2.7%	5.0%	-0.3%
- Cc1ccc(CS(=O)(=O)Cc2ccc(C(=O)NC3CCCCCC3)o2)cc1
    .	.	.	.	-20.2%	?	0.3%	-6.7%
- NS(=O)(=O)Oc1ccccc1
    .	.	.	.	-14.0%	1.4%	0.8%	-19.8%
- CC1CCCC(NC(=O)COC(=O)CCC2CCCC2)C1C (stereo not given)
    -7.4%	-1.9%	7.7%	-13.2%	8.8%	-19.5%	-6.8%	-6.1%
- O=C(c1ccco1)N(Cc1ccc([N+](=O)[O-])cc1)c1ccc(Cl)cc1
    ?	1.5%	-3.7%	-29.2%	?	-18.2%	-35.9%	1.6%
- Cc1cccc(OCC(=O)Nc2cccc(-c3nnc(-c4ccccc4)o3)c2)c1C
    -1.7%	0.4%	25.1µM*	?	.	-2.1%	-2.3%	8.8%
- CN1C(=O)C(=O)/C(=C(/O)c2ccccc2)C1c1ccc(Br)cc1 (stereo not given)
    .	.	.	.	-10.5%	-1.3%	1.3%	-7.2%
- CCCCc1ccc(NC(=O)Cn2cnc3c2c(=O)n(C)c(=O)n3C)cc1
    .	-1.2%	-5.6%	-4.8%[46.1 µM]	1.1%	.	.	.
- COc1ccc(/C=N/NC(=O)c2cccc(NC(=O)c3ccccc3Cl)c2)cc1OC
    ?	.	.	2.2%	-4.5%	1.6%	.	16.9%
- CC1CN(S(=O)(=O)c2ccc(C(=O)Nc3ccc(S(=O)(=O)N4CCOCC4)cc3)cc2)CC(C)O1 (stereo not given)
    -5.6%	.	.	8.0%	-25.8%	0.8%	?	-13.1%
- CC1CCN(C(=S)NC(=O)c2cccc([N+](=O)[O-])c2)CC1
    .	.	.	.	24.8%	?	-5.2%	-4.4%
- COc1cccc(NC(=O)CSc2nc3c([nH]c4ccccc43)c(=O)n2-c2ccccc2)c1
    .	-5.6%	?	?	-9.9%	.	.	.
- Cc1ccc(CNC(=O)C2CCCN(S(=O)(=O)c3cccc4nonc34)C2)cc1 (stereo not given)
    8.8%[46.1 µM]	.	.	-5.4%[46.1 µM]	8.1%	2.0%	6.3%	-2.8%
- N#CCCn1nc(-c2ccc(Br)cc2)cc1Nc1ccccc1NC(=O)C(F)(F)F
    ?	-8.9%	3.1%	-4.8%	?	-20.3%	16.5%	-2.1%
- COc1ccc(-c2cc(=O)oc3c(C)c(OC(C)C(=O)Nc4ccc(CN5CCOCC5)cc4)ccc23)cc1 (stereo not given)
    .	.	.	.	1.2%	-3.7%	4.7%	14.9%
- COc1ccc(NC(=O)CSc2nnc(-c3ccncc3)o2)c(OC)c1
    3.5%[46.1 µM]	.	.	11.0%	-0.2%	-1.8%	.	4.0%
- CC(C)(C)NC(=S)NCc1ccco1
    13.9%	-12.9%	14.8%	3.5%	-10.8%	-28.2%	20.4%	6.4%
- Cc1ccc(NS(=O)(=O)c2cccc(C(=O)NNC(=O)c3cccn3C)c2)c(C)c1
    14.0%	.	.	?	12.4%	1.1%	12.1%	0.3%
- O=C(c1ccc2c(c1)OCO2)C1CCCN(Cc2ccc(F)c(F)c2)C1 (stereo not given)
    ?	.	.	0.1%	-25.6%	3.2%	-6.2%	-10.9%
- CN(CC(=O)Nc1cccc(F)c1)C(=O)CC1CCCC1
    -14.7%	.	.	-7.0%	-25.3%	1.0%	.	-7.6%
- Cc1ccc(CN2C3CCCC2CC(NC(=O)c2ccc(C)cc2)C3)cc1 (stereo not given)
    13µM*	.	.	?	-19.6%	-0.9%	-1.7%	-14.0%
- CCOc1cc(C=C(C(=O)OC)C(=O)OC)ccc1OCc1ccc([N+](=O)[O-])cc1
    2.82µM*	-5.9%	?	3.55µM*	?	-0.2%	3.4%	-13.0%
- Cc1nc(SCC(=O)Nc2ccc(Br)cc2)[nH]c(=O)c1Cc1ccccc1
    2.5%[46.1 µM]	-2.3%	6.4%	2.0%[46.1 µM]	-23.2%	.	.	.
- O=C(OCc1cc2ccccc2[nH]c1=O)C1CCCCC1
    11.9%	-0.5%	-9.8%	3.0%	7.0%	-2.6%	-71.8%	12.4%
- O=C(O)CC[C@@H](C(=O)O)N1C(=O)c2ccccc2C1=O
    ?	1.9%&7.6%	?	?	-29.2%	-0.5%	?	4.3%
- O=C(/C=C/c1ccco1)OCC(=O)c1cccc([N+](=O)[O-])c1
    12.3%[46.1 µM]	.	.	3.5%	6.0%	-2.6%	-9.2%	3.7%
- CC1CCCCC12NC(=O)N(CC(=O)Nc1ccc3[nH]c(=O)[nH]c3c1)C2=O (stereo not given)
    -0.4%	.	.	-1.2%	-25.1%	0.5%	.	-1.5%
- CN(C)S(=O)(=O)c1ccc(Cl)c(NC(=O)COC(=O)/C=C/c2ccc(S(=O)(=O)N3CCOCC3)cc2)c1
    -6.2%	-2.0%	28.3%	-4.1%	-6.0%	10.8%	20µM*	13.6%
- O=C(OCC(=O)N1CCN(Cc2ccccc2)CC1)c1cc(Cl)ccc1[N+](=O)[O-]
    1.2%	.	.	-12.9%	0.0%	4.0%	.	11.4%

Screens (PubChem)
